# Compound activity: PubChem BioAssay, Broad Institute
# HIV Env fusion: inhibitors of HIV Env-mediated cell fusion; HeLa-JRFL Env/CEM21 cell fusion, luciferase; actives 1.1% (n = 360,000); inhibition, % at 12.3 µM;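 active = mean replicate inhibition score of at least 50 and every replicate individually at or above 50; inconclusive = only one of the two criteria met; inactive = mean below 50 and not all replicates reaching 50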;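 note: 0% = plate neutral controls and 100% = maraviroc near 300 nM; one replicate is shown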
# Yeast UUG start: modulators of start codon recognition fidelity in yeast | S. cerevisiae UUG-firefly luciferase reporter, luminescence/redox ratio | activity score, % at 18.7 µM | actives 0.13% (n = 350,000) | AID 602363;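 active = replicate mean at a twofold rise or more, about +100% in these data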;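 note: firefly luciferase made from a UUG start codon reports start codon fidelity; reporter light over untreated wells divided by growth signal over untreated wells; some hits fall short of that in this replicate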
# An asterisk follows results filed as active; ? = inconclusive; & = joins results of further samples; [ ] = remark or other dose. This is a subset (hit frequency here may not be typical).
no.	Molecule	Yeast UUG start	HIV Env fusion
1	O=C(C[C@@H]1C=C[C@H](NC(=O)Nc2ccc(C(F)(F)F)cc2)[C@@H](CO)O1)NCc1cccc(F)c1	3.6	22.0[16.7 µM]
2	C[C@H](CO)N1C[C@H](C)[C@@H](CN(C)C(=O)C2CC2)OCc2cn(nn2)CCCC1=O	-1.6	0.3
3	C[C@@H]1CN([C@@H](C)CO)C(=O)c2cc(-c3cccc(F)c3)cnc2O[C@H]1CN(C)Cc1ccccc1	-5.3	10.3[16.7 µM]
4	CN(C)C(=O)C[C@H]1CC[C@H](NC(=O)C2CC2)[C@@H](CO)O1	-18.9	7.9[16.7 µM]
5	Cc1noc(C)c1NC(=O)Nc1cccc2c1O[C@@H](CN(C)S(=O)(=O)c1ccc(Cl)cc1)[C@@H](C)CN([C@H](C)CO)C2=O	-1.3	-10.1[16.7 µM]
6	C[C@H](CO)N1C[C@H](C)[C@@H](CN(C)C(=O)Nc2ccccc2)Oc2cc(C#C[C@@H](C)O)ccc2S1(=O)=O	11.0	-25.4[16.7 µM]
7	COCC(=O)N(C)C[C@H]1Oc2cc(C#CC3CC3)ccc2S(=O)(=O)N([C@H](C)CO)C[C@@H]1C	30.8	-8.2[16.7 µM]
8	CCCNC(=O)N(C)C[C@@H]1Oc2cc(C#C[C@H](C)O)ccc2S(=O)(=O)N([C@@H](C)CO)C[C@H]1C	1.4	-5.6[16.7 µM]
9	CN1C(=O)c2cc(NC(=O)c3ccc(F)cc3)ccc2OC[C@@H]2O[C@@H](CC(=O)NC3CCC3)CC[C@@H]21	1.9	-10.8[16.7 µM]
10	CCNC(=O)C[C@@H]1CC[C@@H]2[C@@H](COc3ccc(NC(=O)Nc4cccc(C)c4)cc3C(=O)N2C)O1	6.3	35.8[16.7 µM]
11	Cc1noc(C)c1S(=O)(=O)N(C)C[C@@H]1Oc2ccc(NC(=O)Nc3ccc4c(c3)OCO4)cc2CC(=O)N([C@H](C)CO)C[C@@H]1C	-5.2	28.6[16.7 µM]
12	COC(=O)[C@@]1(CCS(=O)(=O)c2ccccc2)N=C(c2ccc(OCCCO)cc2)O[C@H]1c1ccccc1	5.5	-3.8[16.7 µM]
13	Cc1noc(C)c1S(=O)(=O)Nc1ccc2c(c1)CC(=O)N([C@@H](C)CO)C[C@@H](C)[C@@H](CN(C)S(=O)(=O)c1cccs1)O2	18.2	-4.4[16.7 µM]
14	C[C@@H]1CN([C@H](C)CO)C(=O)Cc2cc(NS(C)(=O)=O)ccc2O[C@@H]1CN(C)C(=O)NC1CCCCC1	-7.0	-13.1[16.7 µM]
15	C[C@H]1CN([C@@H](C)CO)C(=O)c2cc(-c3ccccc3)cnc2O[C@@H]1CN(C)Cc1ccccc1	2.4	2.0[16.7 µM]
16	C[C@@H]1CN([C@@H](C)CO)C(=O)c2cc(NC(=O)Nc3ccccc3)ccc2O[C@@H](C)CCCCO[C@H]1CN(C)C(=O)CCC(F)(F)F	5.9	22.0[16.7 µM]
17	Cc1ccc(S(=O)(=O)N[C@@H]2C=C[C@H](CC(=O)NC3CCCCC3)O[C@H]2CO)cc1	-17.4	1.2[16.7 µM]
18	C[C@H]1CN([C@@H](C)CO)C(=O)Cc2cc(NC(=O)Nc3ccccc3)ccc2O[C@H]1CN(C)C(=O)Nc1ccccc1	-5.0	-3.5[16.7 µM]
19	C[C@H](CO)N1C[C@H](C)[C@H](CN(C)Cc2ccc(C(=O)O)cc2)Oc2c(NS(=O)(=O)c3ccccc3)cccc2C1=O	-8.7	-6.8[16.7 µM]
20	Cc1noc(C)c1NC(=O)Nc1cccc2c1O[C@H](CN(C)Cc1ccccc1)[C@H](C)CN([C@@H](C)CO)C2=O	-3.0	-45.6[16.7 µM]

# Sorted by length of the SMILES (highest first): three of the compounds above.
no.	Molecule	Yeast UUG start	HIV Env fusion
13	Cc1noc(C)c1S(=O)(=O)Nc1ccc2c(c1)CC(=O)N([C@@H](C)CO)C[C@@H](C)[C@@H](CN(C)S(=O)(=O)c1cccs1)O2	18.2	-4.4[16.7 µM]
18	C[C@H]1CN([C@@H](C)CO)C(=O)Cc2cc(NC(=O)Nc3ccccc3)ccc2O[C@H]1CN(C)C(=O)Nc1ccccc1	-5.0	-3.5[16.7 µM]
12	COC(=O)[C@@]1(CCS(=O)(=O)c2ccccc2)N=C(c2ccc(OCCCO)cc2)O[C@H]1c1ccccc1	5.5	-3.8[16.7 µM]

# (continued)
no.	Molecule	Yeast UUG start	HIV Env fusion
21	C[C@H](CO)N1C[C@H](C)[C@@H](CN(C)Cc2ccc3c(c2)OCO3)Oc2ccc(N(C)C)cc2CC1=O	15.0	43.3[16.7 µM]
22	COc1ccc(S(=O)(=O)N(C)C[C@@H]2OCCCC[C@H](C)Oc3ccc(NC(=O)Nc4cccc5ccccc45)cc3C(=O)N([C@H](C)CO)C[C@H]2C)cc1	-10.3	9.9[16.7 µM]
23	CCC(=O)N(C)C[C@H]1Oc2cc(-c3ccc(OC)cc3)ccc2S(=O)(=O)N([C@H](C)CO)C[C@H]1C	11.9	-6.9[16.7 µM]
24	CC(C)C#Cc1ccc2c(c1)O[C@H](CN(C)C(=O)Nc1ccccc1)[C@H](C)CN([C@H](C)CO)S2(=O)=O	4.6	29.2[16.7 µM]
25	O=C(C[C@H]1CC[C@H](NC(=O)Nc2ccc3c(c2)OCO3)[C@H](CO)O1)NCc1ccc(Cl)cc1	-3.5	7.9[16.7 µM]
26	Cc1ccc(S(=O)(=O)NCC[C@H]2CC[C@H](NC(=O)c3ccccn3)[C@H](CO)O2)cc1	-2.0	-4.5[16.7 µM]
27	CCC(=O)N[C@H]1CC[C@H](CCn2cc(CN(C)C)nn2)O[C@@H]1CO	-6.4	4.5[16.7 µM]
28	C[C@H](CO)N1C[C@H](C)[C@H](CN(C)C(=O)Nc2ccccc2)Oc2c(NC(=O)C3CC3)cccc2C1=O	-10.5	-11.6[16.7 µM]
29	C[C@@H]1CN([C@@H](C)CO)C(=O)c2cccc(NS(=O)(=O)c3ccc(Cl)cc3)c2O[C@H]1CN(C)Cc1ccc(C(=O)O)cc1	-10.0	7.2[16.7 µM]
30	COc1ccc(CN(C)C[C@@H]2Oc3ccc(NS(C)(=O)=O)cc3CC(=O)N([C@H](C)CO)C[C@H]2C)cc1	18.9	11.8[16.7 µM]
31	C[C@H]1CN([C@@H](C)CO)C(=O)Cc2cc(NS(C)(=O)=O)ccc2O[C@H]1CN(C)C(=O)NC1CCCCC1	-10.9	-3.2[16.7 µM]
32	Cn1cnc(S(=O)(=O)N[C@H]2CC[C@@H](CC(=O)Nc3ccccc3)O[C@@H]2CO)c1	-14.9	-7.0[16.7 µM]
33	C[C@@H]1CN([C@@H](C)CO)C(=O)Cc2cc(NC(=O)CCN3CCOCC3)ccc2O[C@H]1CN(C)S(=O)(=O)c1ccc(Cl)cc1	6.3	-12.5[16.7 µM]
34	O=C(CC1CC1)N[C@H]1CC[C@H](CCNS(=O)(=O)c2ccc(F)cc2)O[C@@H]1CO	-3.0	-2.8[16.7 µM]
35	C[C@H](CO)N1C[C@H](C)[C@H](CN(C)S(=O)(=O)c2ccccc2)Oc2ncc(/C=C/c3ccccc3)cc2C1=O	5.8&11.0	73.7*[16.7 µM]
36	O=C(C[C@@H]1CC[C@@H](NC(=O)Nc2cc(F)ccc2F)[C@H](CO)O1)NCc1ccncn1	-6.9	11.6[16.7 µM]
37	C[C@@H]1CN([C@H](C)CO)C(=O)Cc2cc(NC(=O)Nc3ccc4c(c3)OCO4)ccc2O[C@H]1CN(C)Cc1ccc(-c2ccccc2)cc1	2.6	9.5[16.7 µM]
38	CO[C@H]1CN(C)C(=O)c2ccc(NC(=O)c3cccc(F)c3)cc2OC[C@H](C)NC[C@H]1C	-1.9	14.2[16.7 µM]
39	C[C@@H]1CN([C@@H](C)CO)C(=O)Cc2cc(NC(=O)NC3CCCCC3)ccc2O[C@@H]1CN(C)S(=O)(=O)c1cn(C)cn1	-4.2	-4.6[16.7 µM]
40	COc1ccc(NC(=O)N(C)C[C@@H]2Oc3ccc(NC(=O)CCC(F)(F)F)cc3CC(=O)N([C@H](C)CO)C[C@H]2C)cc1	-2.1	15.6[16.7 µM]
41	CN1C(=O)c2cc(NC(=O)c3ccc(F)cc3)ccc2OC[C@H]2O[C@@H](CC(=O)NC3CCC3)CC[C@H]21	8.6	0.2[16.7 µM]
42	CN(C)CC(=O)N1[C@H](CO)[C@@H](c2ccc(C#CC3CCCC3)cc2)[C@@H]1C#N	-0.7	?
43	C[C@H]1CCCCO[C@H](CN(C)S(=O)(=O)c2ccc(F)cc2)[C@@H](C)CN([C@@H](C)CO)C(=O)c2cc(NS(=O)(=O)c3ccc(Cl)cc3)ccc2O1	-0.1	10.9[16.7 µM]
44	C[C@@H]1CN([C@H](C)CO)C(=O)Cc2cc(NC(=O)Cc3cn(C)c4ccccc34)ccc2O[C@H]1CN(C)C(=O)Nc1cccc2ccccc12	-4.0	17.9[16.7 µM]
45	CNC[C@H]1Oc2ccc(NC(=O)Cc3cn(C)c4ccccc34)cc2CC(=O)N([C@H](C)CO)C[C@H]1C	2.4	14.0[16.7 µM]
46	Cc1ccc(S(=O)(=O)N(C)C[C@@H]2Oc3cc(Br)ccc3S(=O)(=O)N([C@H](C)CO)C[C@@H]2C)cc1	3.1	62.6*[16.7 µM]
47	COc1ccc(S(=O)(=O)Nc2ccc3c(c2)C(=O)N([C@@H](C)CO)C[C@@H](C)[C@H](CN(C)C(=O)Nc2ccccc2)O3)cc1	5.4	0.4[16.7 µM]
48	CCC(=O)N(C)C[C@H]1Oc2cc(C#CCOC)ccc2S(=O)(=O)N([C@@H](C)CO)C[C@H]1C	-2.1	8.7[16.7 µM]
49	C[C@@H]1CN([C@@H](C)CO)C(=O)c2cc(-c3ccc(C(=O)N(C)C)cc3)cnc2O[C@H]1CN(C)C	1.3	4.7[16.7 µM]
50	C[C@@H]1CCCCO[C@@H](CN(C)S(C)(=O)=O)[C@H](C)CN([C@@H](C)CO)C(=O)c2cc(NC(=O)Nc3ccc(F)cc3)ccc2O1	35.0	3.3[16.7 µM]
51	CC(C)NC(=O)Nc1cccc2c1O[C@H](CN(C)Cc1ccc(-c3ccccc3)cc1)[C@H](C)CN([C@H](C)CO)C2=O	-1.9	1.4[16.7 µM]
52	C[C@H](CO)N1C[C@H](C)[C@H](CN(C)C(=O)Cc2ccncc2)Oc2cc(C#CC3CC3)ccc2S1(=O)=O	-4.8	2.1[16.7 µM]
53	CCC(=O)N(C)C[C@@H]1Oc2ncc(C#Cc3ccccc3OC)cc2C(=O)N([C@@H](C)CO)C[C@H]1C	4.4	10.9[16.7 µM]
54	Cc1noc(C)c1NC(=O)N(C)C[C@@H]1OCCCC[C@H](C)Oc2ccc(NC(=O)NC(C)C)cc2C(=O)N([C@@H](C)CO)C[C@H]1C	-1.4	-33.3[16.7 µM]
55	C[C@H]1CN([C@@H](C)CO)C(=O)Cc2cc(NC(=O)Cc3cn(C)c4ccccc34)ccc2O[C@H]1CN(C)Cc1ccc2c(c1)OCO2	45.4	4.8[16.7 µM]
56	N#C[C@@H]1[C@@H](c2ccc(-c3ccc(F)cc3)cc2)[C@@H](CO)N1C(=O)Cc1ccccc1	7.7	11.2[16.7 µM]
57	C[C@@H]1CN([C@@H](C)CO)C(=O)c2cc(NC(=O)C3CCCCC3)ccc2O[C@H]1CN(C)S(=O)(=O)c1cn(C)cn1	-1.4	5.9[16.7 µM]
58	C/C=C/c1ccc2c(c1)O[C@@H](CN(C)C(=O)Nc1ccc(F)cc1)[C@@H](C)CN([C@H](C)CO)S2(=O)=O	2.9	-8.9[16.7 µM]
59	COc1ccc(S(=O)(=O)N(C)C[C@H]2OCCCC[C@H](C)Oc3ccc(NS(=O)(=O)c4c(C)noc4C)cc3C(=O)N([C@@H](C)CO)C[C@@H]2C)cc1	13.8	37.6[16.7 µM]
60	CCCNC(=O)N(C)C[C@H]1Oc2ncc(-c3ccc(C(=O)N(C)C)cc3)cc2C(=O)N([C@H](C)CO)C[C@H]1C	1.5	-19.0[16.7 µM]
61	C[C@@H]1CN([C@H](C)CO)C(=O)c2cc(NC(=O)C3CCCCC3)ccc2O[C@@H]1CN(C)S(=O)(=O)c1ccccc1	4.0	8.9[16.7 µM]
62	C[C@H](CO)N1C[C@H](C)[C@@H](CN(C)S(=O)(=O)c2cccs2)OCCCC[C@H](C)Oc2ccc(NS(=O)(=O)c3ccc(Cl)cc3)cc2C1=O	1.6	12.6[16.7 µM]
63	C[C@@H]1CN([C@H](C)CO)C(=O)c2cc(C#CC3(O)CCCC3)cnc2O[C@H]1CN(C)C(=O)C1CCCCC1	32.6	14.9[16.7 µM]
64	COc1ccc(NC(=O)N(C)C[C@H]2Oc3c(NC(=O)Nc4ccccc4)cccc3C(=O)N([C@@H](C)CO)C[C@@H]2C)cc1	3.1	14.8[16.7 µM]
65	C[C@H](O)C#Cc1cnc2c(c1)C(=O)N([C@H](C)CO)C[C@H](C)[C@H](CN(C)Cc1ccccn1)O2	-16.3	-17.9[16.7 µM]
66	Cc1ccc(S(=O)(=O)Nc2ccc3c(c2)C(=O)N([C@H](C)CO)C[C@H](C)[C@@H](CN(C)S(=O)(=O)c2c(C)noc2C)OCCCC[C@@H](C)O3)cc1	-8.2	-7.5[16.7 µM]
67	C[C@H]1CN([C@@H](C)CO)C(=O)Cc2cc(NC(=O)Nc3ccccc3)ccc2O[C@@H]1CN(C)C(=O)Nc1ccc(C(F)(F)F)cc1	-8.6	-8.2[16.7 µM]
68	C[C@@H]1CN([C@H](C)CO)C(=O)c2cc(NC(=O)CCC(F)(F)F)ccc2O[C@@H](C)CCCCO[C@@H]1CN(C)C(=O)c1ccccc1	17.5	-3.4[16.7 µM]
69	CCCC#Cc1ccc2c(c1)O[C@H](CN(C)C(=O)NCCC)[C@@H](C)CN([C@@H](C)CO)S2(=O)=O	9.6	-50.4[16.7 µM]
70	Cc1ccccc1-c1cnc2c(c1)C(=O)N([C@H](C)CO)C[C@@H](C)[C@@H](CN(C)C(=O)c1ccccc1)O2	-2.0	0.6[16.7 µM]
